# Screening data deposited in PubChem BioAssay by several laboratories.
# Hsc70 ATP site – small molecules displacing fluorescent ligand from Hsc70 – biochemical, fluorescence polarization, primary screen (AID 568); Hsc70 fluorescence polarization, probe displacement; higher % means a stronger effect; strong numbers were not always called active; displacement, % at 20 µM, or IC50 in µM where a hit was titrated; 83,000 tested, under 10 active;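 active = displacement above 50% without optical interference and an IC50 on retest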;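 also: ATPase domain with a fluorescein-tagged ATP probe; 0% = vehicle and 100% = excess ADP; read after one hour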
# MT1-MMP promoter – inhibitors of MT1-MMP promoter transcription, cell-based, luciferase reporter, luminescence (AID 618); calls from a first round at 10 µM; hits with a dose series show EC50 in µM; 87,000 compounds, 0.62% hits; MT1-MMP promoter luciferase reporter cells, luminescence;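 active = over half of the reporter light lost at 10 µM or EC50 under 50 µM; inactive = the rest and hits that failed the dose series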;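 also: actives suppress MT1-MMP promoter-driven transcription so potencies describe inhibitors; HT1080 fibrosarcoma cells; overnight exposure; toxic or luciferase-blocking compounds were not removed from the actives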
# WNV protease inh – WNV NS2B-NS3 proteinase inhibition; P06935; WNV NS2B-NS3 protease, fluorogenic substrate Ex360/Em465; active compounds read low; z-score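 (tested at a level between 10 and 100 µM)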; 65,000 compounds, 0.18% hits; AID 577;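 active = z-score at -3 or under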;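 also: score is relative to mean and spread of the compound wells of a plate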
# Target sequence (P06935 1371-1501 limits assumed): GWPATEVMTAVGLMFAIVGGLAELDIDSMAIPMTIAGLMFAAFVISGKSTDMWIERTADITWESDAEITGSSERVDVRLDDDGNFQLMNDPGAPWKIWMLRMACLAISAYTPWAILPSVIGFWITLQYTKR
# Target sequence (P06935 1502-1679 limits assumed): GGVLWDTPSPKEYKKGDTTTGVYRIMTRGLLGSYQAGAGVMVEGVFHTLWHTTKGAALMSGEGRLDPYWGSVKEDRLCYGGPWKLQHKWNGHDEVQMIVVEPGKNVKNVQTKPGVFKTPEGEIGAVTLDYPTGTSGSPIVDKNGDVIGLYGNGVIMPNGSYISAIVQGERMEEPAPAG
# An asterisk follows results filed as active; i = inactive; / = not tested or not shown.
# Values run as follows: MT1-MMP promoter	Hsc70 ATP site	WNV protease inh
CCCCOC(=O)Nc1nnc(-c2ccccc2OC)s1
  i	4.1%	0.26
CC(C(=O)N1CCOCC1)(c1ccccc1)c1ccccc1
  i	0.7%	0.12
O=C(c1noc2c1CCCC2)N1CCN(C(c2ccccc2)c2ccccc2)CC1
  i	8.7%	-0.97
CCOC(=O)c1nnn(-c2nonc2-n2cccc2)c1C
  i	3.9%	-1.8
CCN(CC(=O)Nc1ccc2c(c1)OCCO2)C(=O)c1cccc(S(=O)(=O)N2CCOCC2)c1
  i	-4.0%	-0.15
O=C(CSc1nccc2ccccc12)N1CCN(c2ccccn2)CC1
  i	-1.5%	-1.2
CC1CC(c2ccccc2)n2nc(NC(=O)c3cccs3)nc2N1 (stereo unspecified)
  i	-6.4%	1.4
N#Cc1nc(Cc2cccc3ccccc23)oc1NCCN1CCCCC1
  i	-5.5%	-0.007
O=C(COC(=O)c1cccs1)NCc1ccco1
  i	4.1%	-0.28
CCC(=O)n1nc(-c2cccnc2)nc1NCc1ccc(OC)cc1
  i	-3.2%	-2.2
Clc1ccc(C=NC23CN4CN(CN(C4)C2)C3)cc1
  i	-8.0%	1.5
CSc1ccc(Cl)c(C(=O)NCc2ccco2)c1
  i	-2.6%	0.32
CC(=O)Nc1ccc2[nH]c(C)c(CC=C(Cl)Cl)c(=O)c2c1
  i	-5.1%	/
CC(=O)N1CCN=C1SCc1ccccc1Cl
  i	-1.9%	0.42
CC1(C)Cc2c(c(=S)nc(-c3ccccc3)n2CCOCCO)CO1
  i	0.5%	1.1
COc1ccc(NC(=O)CNCCC2=CCCCC2)cc1
  i	-3.8%	0.35
Cc1ccc(S(=O)(=O)N2CCN(C(=O)c3cc(=O)[nH]c4ccccc34)CC2)c(C)c1
  i	-1.7%	-0.93
COc1ccc(OCCn2c(NC(=O)c3ccco3)nc3ccccc32)cc1
  i	-1.6%	2.1
O=C(NC1CC1)C1CCN(c2ccc(S(=O)(=O)N3CCOCC3)cc2Cl)CC1
  i	-1.9%	0.01
Cc1ccc(-c2c(C#N)c(N)nc3c2CCCCCC3)o1
  i	1.3%	0.04
O=C(C1CCN(Cc2ccc(F)cc2)CC1)N(CCO)Cc1ccccc1
  i	0.8%	-1.2
COc1ccccc1Nc1nc(N)nc(CN(C)C2CCCCC2)n1
  i	-2.1%	-0.65
CC/C(C)=C1\SC(N2CCOCC2)=NC1=O
  i	0.7%	/
CCOC(=O)c1ccc(NC(=O)CN(c2ccc(C)cc2)S(=O)(=O)c2c(C)n[nH]c2C)cc1
  i	0.3%	1.1
CCN1CCN(C(=O)CN2C(=O)c3cccc4cccc2c34)CC1
  i	-2.2%	/
CCCCN(C(=O)NC(=O)Nc1ccccc1OC)S(C)(=O)=O
  i	1.3%	0.63
Cc1ccc(S(=O)(=O)N2CCN(S(=O)(=O)N3CCCCC3)CC2)cc1
  i	-2.3%	0.68
CCOc1ccc(S(=O)(=O)NCc2ccccn2)cc1
  i	1.6%	/
CCNC(=O)COc1ccc(Br)cc1Cl
  i	3.7%	0.04
O=C(CCC(=O)N(CC(=O)NC1CCCCC1)Cc1ccco1)Nc1nccs1
  i	-4.7%	0.51
Cc1noc(NS(=O)(=O)c2ccc(NC(=O)CSc3nc4c(cc3C#N)CCC4)cc2)c1C
  i	-4.8%	-0.03
COCCn1c(SCC(=O)Nc2cc(C)cc(C)c2)nnc1C(C)C
  i	-3.9%	-1.1
O=C(c1ccc2c(=O)n(Cc3ccc4c(c3)OCO4)c(=S)[nH]c2c1)N1CCCCC1
  i	-0.7%	1.7
CCOC(=O)c1c(CNCCN(CC)CC)n(C)c2cc(Br)c(OC)cc12
  i	-3.1%	0.06
O=C1CC(c2ccccc2)c2ccc(O)cc2O1 (stereo unspecified)
  i	4.1%	/
CCn1c(SCC(=O)NCc2ccco2)nc2cccnc21
  i	8.9%	-2
Cc1ccc(C2c3c(-c4ccccc4O)n[nH]c3C(=O)N2Cc2ccncc2)cc1 (stereo unspecified)
  i	-3.8%	-0.83
O=C(CSC1=NS(=O)(=O)c2ccccc21)Nc1ccccc1
  i	0.9%	-0.63
CC(C)n1cc(C(=O)c2cc(Br)ccc2O)cc(C#N)c1=O
  i	-4.3%	/
CN(C)c1nc(OCCOC(=O)c2ccccc2)nc(N(C)C)n1
  i	4.3%	-0.15
CCN(CCCNC(=O)C1CCC(=O)N1Cc1ccc(C)cc1)c1cccc(C)c1 (stereo unspecified)
  i	-1.0%	-0.3
Cc1nc(NCCc2ccccc2)c2oc3ccccc3c2n1
  i	3.5%	/
C=CCNC(=O)c1cnc2n(c1=O)CCS2
  i	-0.8%	-0.8
Cc1cc(=O)oc2cc(OCC(=O)NCc3ccco3)ccc12
  i	0.8%	/
CCOC(=O)CSc1nc2sc3c(c2c(=O)n1C1CCCCC1)CCN(C)C3
  i	-0.2%	/
O=C(c1cccc(F)c1)N1CCc2ccccc2C1
  i	-2.6%	-0.02
CCOC(=O)Nc1ccc(S(=O)(=O)Nc2cc(C)nc(C)n2)cc1
  i	1.3%	/
CCOC(=O)N1CCC(N2C(=O)c3ccccc3C2Nc2ccc3c(c2)OCCO3)CC1 (stereo unspecified)
  i	-0.1%	-0.74
O=C(CN1C(=O)c2cccc3cccc1c23)N1CCN(Cc2ccc3c(c2)OCO3)CC1
  i	-5.5%	0.53
COc1ccc(Cc2nc3ccc(S(=O)(=O)N4CCOCC4)cc3[nH]2)cc1OC
  i	-2.4%	/
CCCC(=O)Nc1cccc2c1CCCC2
  i	5.2%	1.2
CCCCN(C(=O)NC(=O)Nc1cccc(C)c1C)S(C)(=O)=O
  i	-0.4%	0.93
COC(=O)c1ccccc1NC(=O)CN(C)S(=O)(=O)c1ccc(OC)cc1
  i	3.7%	1.4
Cc1ccc(-c2ccc(=O)n(CC(=O)NCCCN3CCCCC3)n2)cc1
  i	-1.0%	-0.98
CCN1CCN(C(=O)c2cc3sccc3n2CC(=O)c2ccccc2)CC1
  i	2.8%	0.22
Cc1onc(-c2ccccc2Cl)c1C(=O)N1CCCCC1C(=O)O (stereo unspecified)
  i	4.1%	-0.19
Cc1ccc2c(C(=O)CN3CCSCC3)c(C)[nH]c2c1
  i	0.7%	-0.62
CCN(Cc1cc2cc(OC)ccc2[nH]c1=O)C(=O)c1ccncc1
  i	0.4%	-0.35
Cc1noc(C)c1C(=O)NCCCN1CCCC1=O
  i	0.9%	1.3
CCOc1ccc(C2C(C(=O)NC)=C(C)Nc3nc4ccccc4n32)cc1OC (stereo unspecified)
  i	8.7%	-0.32

# 6 neighbouring entries out of the list so far:
# Values run as follows: MT1-MMP promoter	Hsc70 ATP site	WNV protease inh
Cc1noc(NS(=O)(=O)c2ccc(NC(=O)CSc3nc4c(cc3C#N)CCC4)cc2)c1C
  i	-4.8%	-0.03
COCCn1c(SCC(=O)Nc2cc(C)cc(C)c2)nnc1C(C)C
  i	-3.9%	-1.1
O=C(c1ccc2c(=O)n(Cc3ccc4c(c3)OCO4)c(=S)[nH]c2c1)N1CCCCC1
  i	-0.7%	1.7
CCOC(=O)c1c(CNCCN(CC)CC)n(C)c2cc(Br)c(OC)cc12
  i	-3.1%	0.06
O=C1CC(c2ccccc2)c2ccc(O)cc2O1 (stereo unspecified)
  i	4.1%	/
CCn1c(SCC(=O)NCc2ccco2)nc2cccnc21
  i	8.9%	-2

# The results go on:
# Values run as follows: MT1-MMP promoter	Hsc70 ATP site	WNV protease inh
COc1ccc(OC)c2c(N3CCN(C)CC3)cc(C(F)(F)F)nc12
  i	-0.8%	-1.6
N#CCSc1nc(-c2ccccc2)cs1
  i	-5.1%	0.02
COc1ccc(C(=O)Nn2c(SCC(=O)NCc3ccco3)nc3ccccc3c2=O)cc1
  1.1µM*	5.1%	-0.9
O=C(c1cccc(F)c1)N1CCCC(C(=O)N2CCCC2)C1 (stereo unspecified)
  i	-4.4%	0.2
CCc1nnc(NC(=O)C2CCCN(c3nc4ccccc4s3)C2)s1 (stereo unspecified)
  i	-5.3%	-0.67
O=C(NCc1ccncc1)C(F)(F)C(F)(F)C(=O)NCc1ccncc1
  i	1.8%	0.13
COCCSc1ccccc1C(=O)Nc1cccnc1
  i	0.7%	/
CC(=O)C1C(=O)C=C(c2ccco2)CC1c1ccccc1 (stereo unspecified)
  i	-0.1%	-1
O=C(O)c1cccnc1SCC(=O)N1CCCCCC1
  i	0.1%	-0.98
O=C(NCS(=O)(=O)c1ccccc1)c1ccccc1
  i	-3.2%	-0.52
COc1ccc(S(=O)(=O)N2CCN(CCC(=O)Nc3ccccc3F)CC2)cc1
  i	-6.0%	/
COc1ccc(-c2nn(-c3ccccc3)cc2C(=O)O)cc1
  i	-0.4%	-1.7
O=C(Nc1cccc(Cl)c1)N(Cc1nc2ccccc2c(=O)[nH]1)C1CCCC1
  i	-8.5%	-0.41
O=C(/C=C/c1ccc(Cl)cc1)c1cccnc1
  i	0.9%	/
CCSc1nc(N)c2c3c(sc2n1)CCC3
  i	-2.0%	0.54
Cc1cccc(-c2cc3c(nn2)-c2ccccc2C3=O)c1
  i	4.4%	/
CCCn1c(/N=C/c2c[nH]c3ccccc23)nc2ccccc21
  i	3.4%	/
COc1cccc(NC(=O)CSc2nc3ccccc3c(=O)n2CCCC(=O)N2CCCC2)c1
  i	5.0%	-0.58
O=C(c1ccc(S(=O)(=O)N2CCC(c3nc4ccccc4s3)CC2)cc1)N1CCOCC1
  i	-0.2%	1.2
COCCCNC(=O)CCC(=O)Nc1ccc2nc(N3CCOCC3)cc(C)c2c1
  i	6.6%	1.8
CN1CCOc2cc(S(=O)(=O)Nc3ccc(F)cc3)ccc21
  i	-0.9%	-0.3
COc1ccc(CC(NC(C)=O)C(=O)N2CCN(C(=O)Nc3cccc(Cl)c3)CC2)cc1OC (stereo unspecified)
  i	-0.2%	/
COc1ccc(C(=O)Cn2nnc(-c3cccs3)n2)cc1
  i	-3.6%	-0.99
COC(=O)c1cccnc1-n1c(=O)c2cccnc2n(Cc2cccc(OC)c2)c1=O
  i	-0.3%	0.6
CC(=O)c1ccc(NC(=O)CSCC(=O)Nc2ccc3ccccc3c2)cc1
  i	-6.1%	/
Cc1oc(/N=C/c2ccc3c(c2)OCO3)c(C#N)c1C
  i	7.5%	-1.2
CCOCN(C(=O)Cn1c(C(C)O)nc2ccccc21)c1c(C)cccc1CC (stereo unspecified)
  i	0.3%	/
Cc1cc(NC(=O)C2C3C(=O)N(CC4CCCO4)C(C(=O)NCc4ccccc4)C34C=CC2(C)O4)no1 (stereo unspecified)
  i	5.3%	/
Cc1cc(N2CCCC2)n2nc(C)nc2n1
  i	1.6%	0.22
Cc1cccc(C)c1NC(=O)Cn1c(=O)n(CCC(=O)NCc2ccco2)c(=O)c2sccc21
  i	2.8%	0.95
COc1ccc2c(c1)OC13CCN(C)CC1C2C(C(=O)c1ccc(F)cc1)C(=O)N3 (stereo unspecified)
  i	-1.9%	-0.06
Cc1noc(C)c1CSc1ncnc2ccccc12
  i	0.5%	-0.59
COc1ccc(OC)c(C2/C(=C(/O)c3ccc(C)cc3)C(=O)C(=O)N2Cc2ccco2)c1 (stereo unspecified)
  i	-8.4%	0.86
CC1CCCN(C(=O)C(Cc2ccccc2)n2cccc2)C1 (stereo unspecified)
  i	0.3%	1.3
c1ccc(-c2nc3nonc3c3nc4ccccc4n23)cc1
  i	-2.5%	-0.1
COc1ccc(Cl)cc1NC(=O)CSc1nnc(Cc2cccn2C)n1-c1ccc(F)cc1
  i	2.9%	0.87
CCOC(=O)c1ccc2ncc(C(=O)OCC)c(NCCN(C)C)c2c1
  i	2.2%	-0.86
Cc1nn(C)c(C)c1C1Nc2ccccc2C(=O)N1O (stereo unspecified)
  i	2.0%	/
COc1cc2nc(=S)n3[nH]c(CCn4nc(C)cc4C)nc3c2cc1OC
  i	-3.2%	0.66
CCSc1nnc(Nc2ccc(C)cc2)s1
  i	-6.1%	/
Cc1ccc(-c2nn(C)c(=O)c3ccccc23)cc1CNC(=O)Cn1nc(-c2ccccc2)c2ccccc2c1=O
  i	-3.4%	/
CCn1c(N2CCN(CC(=O)c3c[nH]c4ccccc34)CC2)nc2c1c(=O)[nH]c(=O)n2C
  i	-12%	-0.15
COc1cccc(C(=O)N2CCN(C(=O)c3cccc(F)c3)CC2)c1
  i	2.7%	-0.51
Nc1nc(-c2cccs2)cs1
  i	0.7%	/
Cc1cc(Cl)c(S(=O)(=O)NC(C(=O)O)c2ccccc2)cc1OCC(N)=O (stereo unspecified)
  i	0.5%	0.87
Cc1cc(-c2nnc(SCc3ccccn3)o2)no1
  i	-1.0%	-0.67
COc1cc(C)nc(OCCNS(=O)(=O)c2cc(C)ccc2C)n1
  i	-1.2%	0.35
O=C(CN1CCN(C(=O)c2ccccc2)CC1)Nc1ccc(Br)cn1
  i	0.2%	0.6
O=C(NCCCN1CCOCC1)C1(c2ccccc2)CCCC1
  i	2.8%	-0.09
O=c1c2c(nc3nc(Cc4ccccc4)[nH]n13)CCC2
  i	8.9%	-0.55
CC1(C)CC(=O)C(C=NCCN2CCN(C(=O)NC34CC5CC(CC(C5)C3)C4)CC2)=C(O)C1
  i	-0.8%	-0.0056

# These rows are one share of the data. The share of hits here may be higher or lower than overall.
